Source: PubChem BioAssay (several laboratories)
GALR2 agonist: activates the human galanin receptor 2; 140,000 compounds, 0.48% hits; activation, %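 (tested at 5 µM)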; O43603; GALR2-expressing cells, agonist activation read-out; AID 803;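 active means above mean plus 3 SD of all compounds, about 5% in these data, not always enough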;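 further: 0% = vehicle buffer wells and 100% = reference agonist at full effect; tested in CHO reporter cells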
INS promoter inh: TRM-6 insulin promoter activity inhibition; AID 1273; 130,000 compounds, 0.9% hits; TRM-6 cells (human fetal islet line), insulin promoter-eGFP reporter, imaging; reporter expression induced with tamoxifen; inhibition, % at 2 µM;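 active means inhibition above the mean plus 3 SD, with well images judged a real hit on visual review, cut at about 60% in these data, passing the limit was not always enough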
RGS16-Gao: regulators of human RGS16-Galphao interaction; bead-based flow cytometry RGS16-Galphao binding, fluorescence; actives lie on both sides; 220,000 compounds, 0.38% hits; AID 1441; binding response (% of control), % at 10 µM;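 active means below 25% or above 175%, edge rows of some plates excepted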;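 further: Galphao activated by GDP with aluminum fluoride before binding; 100% = wells without compound and 0% = beads without RGS; some results beyond the cut were filed as inactive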
PKD1 kinase inh: blocks activity of human protein kinase D1; PKD1 kinase fluorescence polarization assay; inhibition, %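 (about 10 µM by stock and volumes)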; 200,000 compounds, 0.056% hits; AID 797;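 active means inhibition of 50% or more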;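 further: controls were vehicle for no effect and a reference inhibitor for full effect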
Target sequence (Q15139 whole entry, looked up): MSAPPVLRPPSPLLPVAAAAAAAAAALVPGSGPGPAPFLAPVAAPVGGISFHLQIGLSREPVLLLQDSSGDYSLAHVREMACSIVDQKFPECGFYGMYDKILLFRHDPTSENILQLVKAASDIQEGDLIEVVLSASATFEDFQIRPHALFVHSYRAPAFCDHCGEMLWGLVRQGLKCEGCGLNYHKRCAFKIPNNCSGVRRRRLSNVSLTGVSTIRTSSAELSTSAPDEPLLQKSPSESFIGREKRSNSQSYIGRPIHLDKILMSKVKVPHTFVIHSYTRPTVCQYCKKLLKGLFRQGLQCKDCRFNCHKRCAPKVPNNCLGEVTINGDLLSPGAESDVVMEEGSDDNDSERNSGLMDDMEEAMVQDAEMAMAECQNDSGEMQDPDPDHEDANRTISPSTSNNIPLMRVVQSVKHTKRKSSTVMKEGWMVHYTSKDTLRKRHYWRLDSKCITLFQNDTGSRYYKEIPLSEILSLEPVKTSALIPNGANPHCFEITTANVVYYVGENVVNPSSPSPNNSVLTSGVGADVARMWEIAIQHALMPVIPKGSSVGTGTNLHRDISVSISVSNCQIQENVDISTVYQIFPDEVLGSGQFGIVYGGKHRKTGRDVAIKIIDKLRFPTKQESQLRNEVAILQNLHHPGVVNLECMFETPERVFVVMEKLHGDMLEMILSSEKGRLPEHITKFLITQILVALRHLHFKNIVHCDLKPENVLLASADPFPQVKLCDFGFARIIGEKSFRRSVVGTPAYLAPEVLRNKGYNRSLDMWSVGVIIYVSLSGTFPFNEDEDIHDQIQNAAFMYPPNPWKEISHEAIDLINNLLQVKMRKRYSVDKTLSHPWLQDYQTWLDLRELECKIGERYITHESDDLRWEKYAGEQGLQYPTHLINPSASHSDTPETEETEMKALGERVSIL
HSV augment: HSV replication enhancement; 220,000 compounds, 0.005% hits; HSV replication augmentation in cells, fold increase; maximum fold increase;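 active means peak rise of 1.5-fold or more in the series; tested in PC3 cells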;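 further: first round at 10 µM; read as green reporter fluorescence; hits show the peak of a series up to 25 µM; 1 = signal of infected wells without compound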
INS promoter inh cell count: recorded beside INS promoter inh, whose call it bears; normalized cell count, %; measured here: cell count, toxicity; reference of the scale not given here;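 cells exposed to compound for 48 h; stained nuclei by imaging scaled within each plate; lower means fewer cells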
HSV augment primary fold: recorded beside HSV augment, whose call it bears; fold increase; compound at 10 µM; measured here: primary screen fold increase 10 uM; tested in PC3 cells;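 GFP signal in the first replicate; 1 = infected wells without compound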
* marks the source's active call; other numbers are inactive results; i = inactive; · = not tested or not shown.

Compound	GALR2 agonist	INS promoter inh	INS promoter inh cell count	RGS16-Gao	PKD1 kinase inh	HSV augment	HSV augment primary fold
Cc1ccc(OCCCC(=O)N2CCOCC2)c(C)c1	-2.1	12	63	102	-8	i	0.81
COc1ccc(C2(C(=O)Nc3ccc(C(=O)O)cc3)CCOCC2)cc1	-1.8	·	·	-14	-4	i	1
CCOC(=O)C(=Cc1ccc(-n2cncn2)cc1)C(=O)OCC	·	·	·	99	9	i	0.74
Cc1cc(=O)n2[nH]c(SCc3ccc(Cl)cc3)nc2n1	·	·	·	101	·	i	0.97
C[C@]12CC[C@@H]3c4ccc(O)cc4CC[C@H]3[C@@H]1C[C@@H](O)[C@@H]2O	-1.1	-14	126	107	-5	i	0.87
COc1ccccc1OCC#CCSc1ncccn1	·	·	·	101	-1	i	0.96
Cc1ncc(C(=O)O)c(C(=O)O)c1N	·	·	·	98	·	i	1.1
O=C(CSc1ncccc1-c1nc2ccccc2[nH]1)NCc1ccco1	-1.6	·	·	96	4	i	1.1
O=C(CCC(=O)N1CCN(S(=O)(=O)c2ccc(Cl)cc2)CC1)NCc1ccccc1	-1.4	-42	122	94	-3	i	1.1
CC(/C=N/n1cnnc1)=C\c1ccco1	-1.4	-12	127	103	-9	i	0.72
O=C(CCl)Nc1ccccc1C(=O)Nc1ccc2c(c1)OCO2	·	·	·	103	·	i	0.79
O=C(COC(=O)C1CCC(=O)N1)Nc1ccccc1Br (stereo not given)	·	17	57	85	12	i	0.97

New compounds follow
Compound	GALR2 agonist	INS promoter inh	INS promoter inh cell count	RGS16-Gao	PKD1 kinase inh	HSV augment	HSV augment primary fold
O=C(CSc1ncnc2c1oc1ccccc12)NC1CCCCC1	-2.1	·	·	116	-8	i	1
O=C(COC(=O)/C=C/c1ccccc1Cl)NC(=O)Cc1ccccc1	0.0	·	·	105	-8	i	1
COc1ccc(-n2nnnc2S(=O)(=O)CC(=O)N2CCCCC2)cc1	-1.8	·	·	101	-5	i	0.46
Cn1c(SCc2ccccc2[N+](=O)[O-])nnc1-c1cccnc1	·	·	·	97	-2	i	1.1
O=C(NCCCn1ccnc1)/C(=C\c1cccs1)NC(=O)c1ccco1	0.1	0	116	104	2	i	1
CN(C)/C=C(\C(=O)c1ccc(Cl)cc1)c1nnnn1-c1ccc(Cl)cc1	-1.5	-160	68	97	-2	i	0.96
CCN(CC)S(=O)(=O)c1cccc(NC(=O)c2ccc(-n3nc(C)cc3C)cc2)c1	-0.1	·	·	103	-1	i	0.93
C/C(=N/OCC(=O)NCCCCCCNC(=O)CO/N=C(/C)c1cccs1)c1cccs1	-0.3	-21	75	83	-11	i	0.99
CN(C(=O)CCl)C1CCCc2ccccc21 (stereo not given)	·	·	·	99	-1	i	0.92
CCOC(=O)CCc1c(C)c2ccc(OC(C)C(=O)OCC)c(C)c2oc1=O (stereo not given)	2.2	3	194	101	-16	i	0.85
O=C(CSC1=NCCS1)NC1CCCCC1	0.8	10	79	98	0	i	0.93
CC1CC(OCC(O)CN2CCN(Cc3ccccc3)CC2)CC(C)(C)C1 (stereo not given)	-2.2	·	·	114	-6	i	0.85

Record cards (already shown). Screens in order: GALR2 agonist | INS promoter inh | INS promoter inh cell count | RGS16-Gao | PKD1 kinase inh | HSV augment | HSV augment primary fold
`CCN(CC)S(=O)(=O)c1cccc(NC(=O)c2ccc(-n3nc(C)cc3C)cc2)c1` reads -0.1 | · | · | 103 | -1 | i | 0.93
`CC(/C=N/n1cnnc1)=C\c1ccco1` reads -1.4 | -12 | 127 | 103 | -9 | i | 0.72
`O=C(CCC(=O)N1CCN(S(=O)(=O)c2ccc(Cl)cc2)CC1)NCc1ccccc1` reads -1.4 | -42 | 122 | 94 | -3 | i | 1.1
`O=C(COC(=O)C1CCC(=O)N1)Nc1ccccc1Br` (stereo not given) reads · | 17 | 57 | 85 | 12 | i | 0.97

Remaining list, next part
Compound	GALR2 agonist	INS promoter inh	INS promoter inh cell count	RGS16-Gao	PKD1 kinase inh	HSV augment	HSV augment primary fold
CCCNC(=O)c1cccc(C(F)(F)F)c1	-1.8	·	·	103	1	i	1
CCOC(=O)Cc1cnc(NC(=O)CSc2nc(C)c(CC)c(=O)[nH]2)s1	·	·	·	105	-5	i	0.9
O=c1nc2c(-c3ccccc3F)n[nH]n2c2ccccc12	0.0	·	·	101	-8	i	0.92
CCN(CC)CC(O)Cn1c(-c2cccc(Cl)c2)nc2cc(C)c(C)cc21 (stereo not given)	·	·	·	93	·	i	0.9
COc1cc(C(=O)NCCCc2nc3ccccc3n2Cc2cc(C)ccc2C)cc(OC)c1OC	-0.7	-48	75	·	-4	i	0.85
CCN1CCCC1CNC(=O)c1ccc(Sc2ccc(F)cc2)c([N+](=O)[O-])c1 (stereo not given)	·	·	·	101	1	i	0.84
CCc1nccn1C(=O)c1cnn2c(C(F)F)cc(-c3ccc(C)cc3)nc12	-0.2	·	·	104	-4	i	0.81
COc1ccccc1C(=O)Nc1c2c(nn1-c1cccc(C)c1C)CS(=O)C2 (stereo not given)	0.3	·	·	101	-8	·	·
O=C(Nc1ncc2c(n1)-c1ccccc1CC2)c1cccc(Cl)c1	-0.9	·	·	102	1	·	·
C=CCSc1nnc(-c2cnn(-c3ccccc3)c2-n2cccc2)n1C	-3.3	-20	161	108	-5	i	0.91
CC(=O)NCCC1CCN(c2nc3nonc3nc2N(C)Cc2ccccc2)CC1	·	·	·	100	1	i	1
C/C(=N\Nc1ccc2nncn2n1)c1ccc(Cl)s1	·	·	·	101	·	i	0.85

(more compounds)
Each structure is followed by: GALR2 agonist	INS promoter inh	INS promoter inh cell count	RGS16-Gao	PKD1 kinase inh	HSV augment	HSV augment primary fold
- CCOc1nc(-c2ccc(Cl)cc2)nc2ccccc12
 : 0.4	0	113	49	-1	·	·
- CSc1cccc(NC(=O)C(C)Sc2ccc(C)cc2)c1 (stereo not given)
 : -1.2	·	·	103	2	i	0.86
- COc1ccc(S(=O)(=O)Nc2c3ccccc3nc(=O)n2-c2ccccc2)cc1
 : 1.0	17	101	105	3	i	1
- O=S1(=O)N=C(Oc2ccccc2)c2ccccc21
 : -0.6	·	·	100	-1	i	0.91
- COc1ccc(OCc2n(CC(=O)OC3CC(C)CCC3C(C)C)c3ccccc3[n+]2C)cc1 (stereo not given)
 : ·	·	·	96	·	i	0.7
- COc1nccc(C(F)(F)F)c1C(=O)Nc1ccc(Cl)cc1
 : ·	·	·	100	·	i	0.91
- S=C(NCc1ccccn1)Nc1ccc(Br)cc1Cl
 : ·	-26	95	99	-2	i	1
- CC(=O)Nc1nc(-c2ccc3c(c2)OCO3)cs1
 : ·	·	·	94	·	i	1.1
- Cc1ccc(OCCNc2ccc(C(F)(F)F)cc2[N+](=O)[O-])cc1
 : -1.0	·	·	114	-12	i	1
- CCCC(=O)Nc1c2c(nc3ccccc13)N(c1ccccc1)CC2
 : ·	0	102	108	1	i	0.91
- CC(NC(=O)/C(C#N)=C/c1cn(-c2ccccc2)nc1-c1ccc(F)cc1)c1ccccc1 (stereo not given)
 : -1.1	-53	71	98	-9	i	0.99
- CN(C)c1ccc(P(=O)(OCc2ccccc2)C(O)c2ccncc2)cc1 (stereo not given)
 : -0.7	·	·	129	19	·	·
- Cc1[nH]c(=O)[nH]c(=O)c1CSc1nnc([C@@H](NC(=O)OC(C)(C)C)C(C)C)o1
 : -1.4	0	69	103	-4	i	0.89
- O=C(Cn1nnc2ccccc2c1=O)N[C@@H](Cc1ccccc1)C(=O)O
 : ·	·	·	103	·	i	1.1
- COc1cccc(N/C(SCc2cccc([N+](=O)[O-])c2)=C(/C#N)C(N)=O)c1
 : ·	21	115	101	0	i	0.78

Continued, overlapping the part above by five compounds.
Each structure is followed by: GALR2 agonist	INS promoter inh	INS promoter inh cell count	RGS16-Gao	PKD1 kinase inh	HSV augment	HSV augment primary fold
- CC(NC(=O)/C(C#N)=C/c1cn(-c2ccccc2)nc1-c1ccc(F)cc1)c1ccccc1 (stereo not given)
 : -1.1	-53	71	98	-9	i	0.99
- CN(C)c1ccc(P(=O)(OCc2ccccc2)C(O)c2ccncc2)cc1 (stereo not given)
 : -0.7	·	·	129	19	·	·
- Cc1[nH]c(=O)[nH]c(=O)c1CSc1nnc([C@@H](NC(=O)OC(C)(C)C)C(C)C)o1
 : -1.4	0	69	103	-4	i	0.89
- O=C(Cn1nnc2ccccc2c1=O)N[C@@H](Cc1ccccc1)C(=O)O
 : ·	·	·	103	·	i	1.1
- COc1cccc(N/C(SCc2cccc([N+](=O)[O-])c2)=C(/C#N)C(N)=O)c1
 : ·	21	115	101	0	i	0.78
- O=C(Nc1ccccc1O)c1cccc(S(=O)(=O)N2CCOCC2)c1
 : ·	-462	66	104	-2	i	1.1
- O=C(NC1CCCC1)C(=O)N(Cc1cccnc1)C(C(=O)NC1CCCC1)c1ccco1 (stereo not given)
 : ·	-21	73	100	1	i	1.1
- CN1CCC(OC(=O)c2cccc(Br)c2)CC1
 : -3.1	10	122	98	-2	i	0.83
- CCCNC(=O)CC(NS(=O)(=O)c1ccc(NC(C)=O)cc1)C(C)C (stereo not given)
 : ·	2	103	101	5	i	1
- Cc1ccc(-n2nc(C)c3c2OC(N)=C(C#N)C3c2cccs2)cc1 (stereo not given)
 : -0.9	18	109	100	-2	·	·
- Cc1ccc(NC(c2ccccc2)c2nc3ccccc3[nH]c2=O)cc1 (stereo not given)
 : ·	·	·	100	·	i	0.77
- COc1ccc(CCNC(=O)C23CCC(C)(C(=O)C2=O)C3(C)C)cc1OC (stereo not given)
 : ·	·	·	101	3	i	1
- O=C(CCNC(=O)c1ccc([N+](=O)[O-])cc1)Nc1ccccc1N1CCOCC1
 : ·	·	·	98	-6	i	0.86
- Cn1cc(/C=N/n2cnc3sc4c(c3c2=O)CCCC4)c2ccccc21
 : -1.4	·	·	98	-1	i	0.81
- CC(C)c1ccccc1-n1cc[nH]c1=S
 : ·	18	173	110	1	i	0.94
- COc1ccccc1N1CCN(/N=C/c2cccc(OC)c2O)CC1
 : ·	-89	159	100	6	i	1.1
- CC(=O)CCc1ccc(OCCCCn2cncn2)cc1
 : -1.4	22	156	101	4	i	0.88
- Cc1nc(NC(=O)C2CCCCC2)sc1C
 : -2.0	0	50	103	-1	i	0.9
- O=c1oc(-c2cccs2)nc2ccc(Cl)cc12
 : ·	·	·	106	-12	i	1.1
- CCCCCOC(=O)C1C2C=CC3(CN(c4ccccc4C)C(=O)C13)O2 (stereo not given)
 : -1.4	·	·	100	0	i	0.79

Next part:
Each structure is followed by: GALR2 agonist	INS promoter inh	INS promoter inh cell count	RGS16-Gao	PKD1 kinase inh	HSV augment	HSV augment primary fold
- Cc1cccc(NC(=O)c2cc3c([nH]c4ccccc43)c(C)n2)c1C
 : -0.4	·	·	100	-8	i	0.81
- Cc1cc(C(=O)Nc2c(C)nn(Cc3ccc(F)cc3)c2C)on1
 : -2.1	·	·	100	0	i	1
- Cc1cc(S(=O)(=O)NC2CCCCC2)ccc1-n1cnnn1
 : ·	·	·	107	-4	i	0.96
- CCOc1ccc(OCCn2ccnc2)cc1
 : -0.9	-49	104	106	-7	i	0.97
- Cc1cc(=O)[nH]c(N/N=C/C(C)c2ccccc2)n1 (stereo not given)
 : ·	·	·	96	·	i	0.98
- O=C(CCc1nnc(CCCCc2ccccc2)o1)NCCn1cccn1
 : ·	-22	32	120	-9	i	0.96
